STAT3 SMM – binders of human STAT3; hit rate 0.2% among 17,000; calls only; Small molecule microarray, His-STAT3 binding, anti-His fluorescence;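 active means compounds whose four printed spots each show fluorescence over background unusually high for their array block, chance value under 7%; compounds were printed on slides so no solution concentration is given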;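 further: about 2 pmol printed per array spot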
mut p53 SMM – binders of human mutant p53; calls only; small molecule microarray binding, anti-GST fluorescence; hit rate 0.4% among 17,000;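 active means compounds whose four printed spots each glow above background more than chance allows, each with a p-value under 7%; compounds were printed on slides so no solution concentration is given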;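 further: about 2 pmol printed per array spot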
Myc binder – c-Myc (human) binding. P01106. small molecule microarray, His-c-Myc binding, anti-His fluorescence. calls only. hit rate 1.5% among 17,000. AID 624141;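 active means spot fluorescence over background with P-value below 7% in all four replicate spots, showing protein binding; compounds were printed on slides so no solution concentration is given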;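 further: score is binary with 100 for all four spots passing and 0 otherwise; about 2 pmol printed per array spot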
Target sequence (P01106 whole entry, looked up): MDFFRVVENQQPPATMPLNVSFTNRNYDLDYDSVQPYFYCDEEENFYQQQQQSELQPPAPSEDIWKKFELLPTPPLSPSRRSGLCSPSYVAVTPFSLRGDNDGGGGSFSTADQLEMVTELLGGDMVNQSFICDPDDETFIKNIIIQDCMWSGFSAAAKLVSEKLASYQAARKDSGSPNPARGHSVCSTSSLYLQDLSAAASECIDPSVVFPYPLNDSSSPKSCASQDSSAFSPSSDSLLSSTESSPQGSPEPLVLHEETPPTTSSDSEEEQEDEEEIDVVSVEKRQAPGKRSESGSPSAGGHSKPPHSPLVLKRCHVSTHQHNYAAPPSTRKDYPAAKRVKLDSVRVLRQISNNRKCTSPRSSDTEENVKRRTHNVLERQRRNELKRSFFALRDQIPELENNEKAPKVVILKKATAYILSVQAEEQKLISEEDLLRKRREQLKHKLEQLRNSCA
ID4 binder – binds human ID4 protein on microarray; P47928; small molecule microarray, Flag-ID4 binding, fluorescence F/B; calls only; hit rate 1.2% among 31,000; AID 624137;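 active means spot signal over background at p below 0.07 in all four prints; compounds were printed on slides so no solution concentration is given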;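 further: a binder raises fluorescence above local background on the spot; about 2 pmol printed per array spot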
Target sequence (P47928 whole entry, looked up): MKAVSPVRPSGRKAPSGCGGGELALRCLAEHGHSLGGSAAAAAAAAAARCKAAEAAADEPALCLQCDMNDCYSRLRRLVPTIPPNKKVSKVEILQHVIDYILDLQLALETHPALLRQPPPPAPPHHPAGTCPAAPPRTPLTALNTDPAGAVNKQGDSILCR
Calls only; i = inactive; nt = no result given; + = active, no number.

SMILES	mut p53 SMM	ID4 binder	Myc binder	STAT3 SMM
CC(C)NC(=O)Nc1ccc2c(c1)C(=O)N([C@H](C)CO)C[C@@H](C)[C@H](CN(C)Cc1ccccc1)OCCCC[C@@H](C)O2	i	i	i	i
C[C@H](CO)N1C[C@H](C)[C@H](CN(C)Cc2ccc(C(=O)O)cc2)OCCCC[C@H](C)Oc2ccc(NS(C)(=O)=O)cc2C1=O	i	nt	i	i
COc1ccc(OC)c(/C=C/C(=O)O)c1	i	i	i	i
CC(C)NC(=O)N(C)C[C@@H]1Oc2ccc(NS(=O)(=O)c3ccccc3)cc2CC(=O)N([C@H](C)CO)C[C@@H]1C	i	i	i	i
Cc1noc(C)c1S(=O)(=O)N(C)C[C@@H]1Oc2c(cccc2N(C)C)C(=O)N([C@H](C)CO)C[C@@H]1C	i	i	i	i
C[C@@H]1CN([C@@H](C)CO)C(=O)c2cccc(NC(=O)Nc3ccc(C(F)(F)F)cc3)c2O[C@@H]1CN(C)S(=O)(=O)c1ccc(Cl)cc1	i	i	i	i
C[C@H]1CN([C@@H](C)CO)C(=O)Cc2cc(NC(=O)NC3CCCCC3)ccc2O[C@@H]1CN(C)C(=O)Nc1ccc2c(c1)OCO2	i	i	i	i
C[C@H]1CN([C@@H](C)CO)C(=O)Cc2cc(NC(=O)Nc3ccccc3)ccc2O[C@@H]1CN(C)C(=O)Nc1ccc(F)cc1	i	i	i	i
CC(C)NC(=O)Nc1ccc2c(c1)C(=O)N([C@@H](C)CO)C[C@@H](C)[C@H](CN(C)C(=O)c1ccncc1)OCCCC[C@H](C)O2	i	i	i	i
CNC[C@@H]1Oc2ncc(-c3ccc(OC)cc3)cc2C(=O)N([C@H](C)CO)C[C@@H]1C	i	i	i	i
CNC(=O)CCc1nc(-c2ccc(Cl)cc2)no1	i	i	i	i
COc1cc(O)c(Oc2cc(C)cc(O)c2C(=O)O)c(CO)c1	i	nt	i	i
CN(c1cccc(NC(=O)c2ccc(CN3CCOCC3)cc2)c1)S(C)(=O)=O	i	i	i	i
COC(=O)C(O)(c1c(C)nn(-c2ccccc2)c1N)C(F)(F)F (stereo unspecified)	i	i	i	i
C[C@H]1CCCCO[C@@H](CN(C)Cc2ccccc2)[C@@H](C)CN([C@@H](C)CO)C(=O)c2cc(NS(=O)(=O)c3cn(C)cn3)ccc2O1	i	i	i	i
COc1cc(/C=C(\C#N)C(=O)Nc2nnc(C(F)(F)F)s2)ccc1OCc1ccc(C(F)(F)F)cc1C(F)(F)F	i	i	i	i
CCOC(=O)c1ccc(COC(=O)c2cc(=O)[nH]c3ccccc23)o1	i	i	i	i
COc1ccc(CN(C)C[C@@H]2Oc3c(NC(=O)c4cnccn4)cccc3C(=O)N([C@@H](C)CO)C[C@H]2C)cc1	i	i	i	i
CC(C)C[C@@H]1NC(=O)[C@H]2C[C@@H](C(=O)NCCCCCNC(=O)CS)[C@@H](c3cccc(OCCO)c3)N2C1=O	i	i	i	i
COc1ccc(S(=O)(=O)Nc2cccc3c2O[C@H](CN(C)S(=O)(=O)c2cn(C)cn2)[C@@H](C)CN([C@@H](C)CO)C3=O)cc1	i	i	i	i
COc1ccc(CCNC(=O)C(=O)c2c(C)[nH]c3ccccc23)cc1OC	i	i	i	i
COc1ccccc1N1CCN(C(=O)CN(c2cc(Cl)ccc2OC)S(C)(=O)=O)CC1	i	i	i	i
C[C@H]1CN([C@@H](C)CO)C(=O)CCCn2cc(nn2)CO[C@@H]1CN(C)C(=O)Nc1cccc(Oc2ccccn2)c1	i	i	i	i
O=C(Nc1ccccc1C(=O)NCCOc1ccccc1)c1ccccc1I	i	i	i	i
Cc1noc(C)c1S(=O)(=O)N(C)C[C@H]1Oc2ccc(NS(=O)(=O)c3cn(C)cn3)cc2C(=O)N([C@H](C)CO)C[C@H]1C	i	i	i	i
C[C@H]1CN([C@@H](C)CO)C(=O)c2cc(NC(=O)C3CCCCC3)ccc2O[C@@H]1CN(C)Cc1ccc(Cl)c(Cl)c1	i	nt	i	i
Cc1noc(C)c1NC(=O)N(C)C[C@@H]1Oc2ccc(NC(=O)C3CC3)cc2CC(=O)N([C@@H](C)CO)C[C@H]1C	i	i	i	i
COc1ccc(Nc2nccc(NCCO)n2)cc1	i	nt	i	i
O=C(NCC(c1ccccc1)c1c[nH]c2ccccc12)Nc1ccc(Cl)cc1 (stereo unspecified)	i	i	i	i
Cc1noc(C)c1S(=O)(=O)Nc1ccc2c(c1)C(=O)N([C@H](C)CO)C[C@H](C)[C@H](CN(C)C(=O)NC(C)C)OCCCC[C@H](C)O2	i	i	i	i
Cc1cc2nc(SCC(=O)O)nc(C)c2cc1C	i	i	i	i
C[C@@H]1CN([C@@H](C)CO)C(=O)Cc2cc(NC(=O)Cc3cn(C)c4ccccc34)ccc2O[C@@H]1CN(C)CC1CC1	i	i	i	i
C[C@H](CO)N1C[C@H](C)[C@@H](CN(C)Cc2ccccc2)Oc2ccc(NC(=O)C3CCCCC3)cc2CC1=O	i	nt	i	i
C[C@@H]1CN([C@H](C)CO)C(=O)c2cc(NC(=O)Cc3ccccc3)ccc2O[C@@H](C)CCCCO[C@H]1CN(C)C(=O)Nc1ccccc1	i	i	i	i
C/C=C1\C(O[C@@H]2O[C@H](CO)[C@@H](O)[C@H](O)[C@H]2O)OC=C(C(=O)OC)C1CC(=O)OC[C@@H]1[C@H](C)[C@@H](OC(=O)CC2C(C(=O)OC)=COC(O[C@@H]3O[C@H](CO)[C@@H](O)[C@H](O)[C@H]3O)/C2=C\C)C[C@H]1C(CO)CO (stereo partly specified)	i	nt	i	i
NC(=O)c1c(NC(=O)CSc2ncn[nH]2)sc2c1CCC2	i	+	i	i
C[C@H]1CN([C@@H](C)CO)C(=O)c2cccc(NC(=O)Nc3ccc(F)cc3)c2O[C@@H]1CN(C)Cc1ccc(Cl)c(Cl)c1	i	nt	i	i
C[C@@H]1CN([C@@H](C)CO)C(=O)c2cc(NC(=O)Cc3ccccc3)ccc2O[C@H]1CN(C)Cc1ccc(C(=O)O)cc1	i	i	i	i
COC(=O)C1=CO[C@@H](O[C@@H]2O[C@H](CO)[C@@H](O)[C@H](O)[C@H]2O)[C@@H]2[C@@](C)(O)[C@@H](OC(=O)/C=C/c3ccc(O)cc3)C[C@]12O	i	nt	i	i
C[C@@H]1CN([C@@H](C)CO)C(=O)Cc2cc(NC(=O)NC3CCCCC3)ccc2O[C@H]1CN(C)S(=O)(=O)c1cccs1	i	i	i	i
Cc1c(Cl)cccc1NC(=O)CCN1C(=O)c2ccccc2S1(=O)=O	i	i	i	i
Cc1ccc(S(=O)(=O)N(C)C[C@H]2Oc3c(NC(=O)c4ccc(-c5nccs5)cc4)cccc3C(=O)N([C@@H](C)CO)C[C@@H]2C)cc1	i	nt	i	i
Cc1ccc(S(=O)(=O)NC(C)C(=O)O)cc1C (stereo unspecified)	i	i	i	i
C[C@@H]1CCCCO[C@H](CN(C)C(=O)CCCN(C)C)[C@@H](C)CN([C@H](C)CO)C(=O)c2cc(NC(=O)c3ccncc3)ccc2O1	i	i	i	i
Cc1noc(C)c1NC(=O)N(C)C[C@@H]1Oc2ccc(NC(=O)NC(C)C)cc2CC(=O)N([C@H](C)CO)C[C@@H]1C	i	i	i	i
CC(C)NC(=O)N(C)C[C@H]1Oc2ccc(NS(=O)(=O)c3cn(C)cn3)cc2CC(=O)N([C@H](C)CO)C[C@@H]1C	i	i	i	i
Cc1noc(C)c1NC(=O)N(C)C[C@@H]1Oc2ccc(NC(=O)CCCN(C)C)cc2C(=O)N([C@@H](C)CO)C[C@H]1C	i	i	i	i
COc1cc(C(c2ccc(C)o2)c2ccc(C)o2)c(O)c([N+](=O)[O-])c1	i	i	i	i
C[C@H](CO)N1C[C@H](C)[C@@H](CN(C)S(=O)(=O)c2cccs2)OCCCC[C@H](C)Oc2ccc(NS(=O)(=O)c3cccs3)cc2C1=O	i	i	i	i
C[C@H](CO)N1C[C@H](C)[C@@H](CN(C)Cc2ccccc2)Oc2ccc(NC(=O)c3ccncc3)cc2C1=O	i	nt	i	i

Next results follow.
SMILES	mut p53 SMM	ID4 binder	Myc binder	STAT3 SMM
Cn1c(=O)c2c(nc(SCC(=O)O)n2Cc2ccc(F)cc2)n(C)c1=O	i	i	i	i
C[C@H](CO)N1C[C@H](C)[C@H](CN(C)S(=O)(=O)c2ccccc2)Oc2ncc(-c3ccccc3)cc2C1=O	i	i	i	i
CC1(C)CC[C@]2(C(=O)O[C@@H]3O[C@H](CO)[C@@H](O)[C@H](O)[C@H]3O)CC[C@]3(C)C(=CCC4[C@@]5(C)CC[C@H](O[C@@H]6O[C@H](C(=O)O)[C@@H](O[C@@H]7O[C@H](CO)[C@@H](O)[C@H](O)[C@H]7O)[C@H](O)[C@H]6O)C(C)(C)C5CC[C@]43C)C2C1 (stereo partly specified)	i	i	i	i
C/C=C1\[C@H](O[C@@H]2O[C@H](CO)[C@@H](O)[C@H](O)[C@H]2O)OC=C(C(=O)OC)[C@H]1CC(=O)OC	i	nt	i	i
C[C@@H]1CN([C@@H](C)CO)C(=O)c2cccc(NC(=O)C3CC3)c2O[C@H]1CN(C)C(=O)Nc1ccccc1	i	i	i	i
Cc1ccc(-c2nc(S(=O)(=O)c3ccc(F)cc3)c(SCC(N)=O)o2)cc1	i	i	i	i
Cc1noc(C)c1NC(=O)N(C)C[C@@H]1Oc2c(NS(=O)(=O)c3ccccc3)cccc2C(=O)N([C@@H](C)CO)C[C@H]1C	i	i	i	i
O=c1cc(-c2ccc(O)c(O)c2)oc2c(C3O[C@H](CO)[C@H](O)[C@H](O)[C@H]3O)c(O)cc(O)c12 (stereo partly specified)	i	i	i	i
CC(C)NC(=O)N(C)C[C@@H]1OCCCC[C@@H](C)Oc2ccc(N(C)C)cc2C(=O)N([C@H](C)CO)C[C@@H]1C	i	i	i	i
COc1ccc(NC(=O)N(C)C[C@H]2Oc3c(NC(=O)c4ccc(-c5nccs5)cc4)cccc3C(=O)N([C@H](C)CO)C[C@@H]2C)cc1	i	nt	i	i
COc1ccc2c(c1OC)C(=O)OC2C1c2c(cc3c(c2OC)OCO3)CCN1C (stereo unspecified)	i	i	i	i
Cc1noc(C)c1S(=O)(=O)Nc1ccc2c(c1)CC(=O)N([C@H](C)CO)C[C@H](C)[C@@H](CN(C)Cc1ccc(-c3ccccc3)cc1)O2	i	i	i	i
CC(CC(C)O[C@@H]1O[C@H](CO)[C@@H](O)[C@H](O)[C@H]1O)OC(=O)/C=C/c1ccc(O)cc1 (stereo partly specified)	i	nt	i	i
COc1ccc(CCNc2nc(C)cc(C)n2)cc1OC	i	i	i	i
COCCOC(=O)N1C(=O)[C@@]2(c3cc(C#CC4(O)CCCCCC4)ccc31)[C@H](c1ccccc1OCCO)N1[C@H](c3ccccc3)[C@H](c3ccccc3)OC(=O)[C@H]1[C@@H]2C(=O)N1CCc2cc(OC)c(OC)cc2C1	i	i	i	i
Cc1ccc(S(=O)(=O)N(C)CC(=O)Nc2ccc(C)c(C)c2)cc1	i	i	i	i
COc1cc2ccc(=O)oc2c(CC=C(C)C)c1OC	i	i	i	i
COc1ccc(NC(=O)N(C)C[C@@H]2OCCCC[C@@H](C)Oc3ccc(NS(=O)(=O)c4ccc(OC)cc4)cc3C(=O)N([C@@H](C)CO)C[C@H]2C)cc1	i	nt	i	i
C[C@@H]1CCCCO[C@@H](CN(C)C(=O)CCC(F)(F)F)[C@@H](C)CN([C@H](C)CO)C(=O)c2cc(NS(C)(=O)=O)ccc2O1	i	i	i	i
Cc1cc(C(=O)c2ccccc2)ccc1OC(=O)COc1ccccc1[N+](=O)[O-]	i	i	i	i

Single records (already shown). Order of values: mut p53 SMM, ID4 binder, Myc binder, STAT3 SMM
Cc1noc(C)c1S(=O)(=O)Nc1ccc2c(c1)CC(=O)N([C@H](C)CO)C[C@H](C)[C@@H](CN(C)Cc1ccc(-c3ccccc3)cc1)O2 is listed with i, i, i, i
CC(CC(C)O[C@@H]1O[C@H](CO)[C@@H](O)[C@H](O)[C@H]1O)OC(=O)/C=C/c1ccc(O)cc1 (stereo partly specified) is listed with i, nt, i, i

(list continues)
SMILES	mut p53 SMM	ID4 binder	Myc binder	STAT3 SMM
COc1cc(O)c(C(=O)CCc2ccc(OC)c(OC)c2)c(OC)c1	i	i	i	i
COc1ccc(S(=O)(=O)Nc2ccc3c(c2)C(=O)N([C@H](C)CO)C[C@@H](C)[C@H](CN(C)Cc2ccc4c(c2)OCO4)O3)cc1	i	i	i	i
C=CCNC(=O)c1cc([N+](=O)[O-])cc2c(=O)[nH]c(Nc3ccc(Cl)c(Cl)c3)nc12	i	i	i	i
Cc1ccc(S(=O)(=O)Nc2ccc3c(c2)CC(=O)N([C@H](C)CO)C[C@H](C)[C@H](CN(C)Cc2ccncc2)O3)cc1	i	i	i	i
COc1ccc(NC(=O)Nc2cccc3c2O[C@H](CN(C)S(=O)(=O)c2cn(C)cn2)[C@@H](C)CN([C@H](C)CO)C3=O)cc1	i	i	i	i
C[C@H]1CCCCO[C@@H](CN(C)Cc2ccc(C(=O)O)cc2)[C@@H](C)CN([C@@H](C)CO)C(=O)c2cc(NC(=O)C3CCCCC3)ccc2O1	i	i	i	i
C[C@H](CO)N1C[C@H](C)[C@@H](CN(C)C(=O)CCCN(C)C)OCCCC[C@H](C)Oc2ccc(NC(=O)c3ccncc3)cc2C1=O	i	i	i	i

Only part of the results is shown; the hit share may differ from the screen's.
